HNF4A DNA FP: change in binding of human HNF4 alpha to DNA; activity change, % at 10 µM; AID 1224865; P41235; HNF4a-FITC DNA binding, fluorescence polarization, 1 h; 0.3% of 360,000 active; in the data active means activity change above about 30%, passing the limit was not always enough;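 further: controls were the assay level and a saturating level of protein; the project sought stronger binding though the title names inhibitors; some compounds called inactive have numbers as strong as hits; positive values seem to mean higher polarization but the record does not say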
Target sequence (P41235 whole entry, looked up): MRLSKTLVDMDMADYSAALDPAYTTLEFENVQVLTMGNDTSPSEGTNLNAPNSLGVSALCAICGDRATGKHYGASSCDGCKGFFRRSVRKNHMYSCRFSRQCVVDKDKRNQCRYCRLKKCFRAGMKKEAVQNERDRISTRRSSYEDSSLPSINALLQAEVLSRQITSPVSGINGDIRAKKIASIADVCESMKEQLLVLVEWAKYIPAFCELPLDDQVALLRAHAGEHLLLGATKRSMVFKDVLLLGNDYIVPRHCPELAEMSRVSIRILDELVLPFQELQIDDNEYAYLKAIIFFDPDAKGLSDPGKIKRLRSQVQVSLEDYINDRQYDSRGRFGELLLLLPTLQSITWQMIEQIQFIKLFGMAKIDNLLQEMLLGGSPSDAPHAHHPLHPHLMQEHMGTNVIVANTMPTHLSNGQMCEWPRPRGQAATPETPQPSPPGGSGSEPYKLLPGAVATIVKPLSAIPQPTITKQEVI
RanGTP-Imp inh: disruptors of Ran-importin-beta complex formation – biochemical, FRET, CFP-Ran, YFP-importin-beta, homogeneous, primary screen; cell-free CFP-Ran/YFP-importin-beta FRET ratio; inhibition, % (no concentration beside the values); 1.1% of 300,000 active; AID 2216;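 active means most replicates above 15%; inconclusive means exactly half above 15%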;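 further: 0% = DMSO wells and 100% = Ran loaded with GDP instead of GTP; wells of about 40 µL received 100 nL stock; the first replicate is given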
B2AR ag: activates human beta-2 adrenergic receptor causing internalization; Am2.2-beta2AR cells, FAP receptor internalization, flow cytometry; reference of the scale not given here; 0.43% of 340,000 active; P07550; response, % (test concentration not listed);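 active means response above a set limit, near 3 SD of response in nonfluorescent compounds, cut at about 42% in these data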;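 further: stock transfer was 100 nL into about 11 µL; a reference agonist was the positive control; negative values mostly stem from fluorescent compounds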
Target sequence (P07550 whole entry, looked up): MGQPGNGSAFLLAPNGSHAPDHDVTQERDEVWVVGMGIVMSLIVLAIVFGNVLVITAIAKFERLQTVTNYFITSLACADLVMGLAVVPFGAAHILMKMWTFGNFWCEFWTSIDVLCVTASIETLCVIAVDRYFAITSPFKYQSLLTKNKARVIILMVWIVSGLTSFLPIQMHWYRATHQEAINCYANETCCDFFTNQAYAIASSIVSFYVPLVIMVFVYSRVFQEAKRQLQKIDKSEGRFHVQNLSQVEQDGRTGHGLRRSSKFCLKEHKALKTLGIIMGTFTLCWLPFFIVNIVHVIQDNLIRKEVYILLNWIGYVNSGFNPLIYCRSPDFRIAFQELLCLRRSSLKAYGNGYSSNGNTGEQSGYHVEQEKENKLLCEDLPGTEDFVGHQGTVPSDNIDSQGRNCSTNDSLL
Vif A3G: inhibitors of Vif binding to APOBEC3G peptide, primary screen, biochemical, TR-FRET, GST-Vif 1-94, biotin-A3G peptide, dose response retest (AID 1117319) | TR-FRET GST-Vif / biotin-A3G peptide binding; higher % means a stronger effect; test concentration not given here; strong numbers were not always called active | one-dose inhibition, %; IC50 in µM for titrated hits | 0.57% of 260,000 active;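 active means above the screen mean plus three standard deviations and confirmed in dose response; inconclusive means results disagree or hit not tested in dose response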;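 further: Vif residues 1-94 fused to GST binding biotinylated APOBEC3G peptide 110-148; 0% = full assay without inhibitor and 100% = GST in place of GST-Vif; retest series ran down from 100 µM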
LANA-H2B inh: blocks KSHV LANA binding to histone H2A/H2B | 0.6% of 320,000 active | Q9QR71 | AID 2629 | inhibition, % (concentration not given with the values) | cell-free LANA-H2A/H2B peptide, fluorescence polarization; in the data active means inhibition mostly above about 10%, no sharp cut-off; inactive means mostly below about 6.7%;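 further: stock transfer was 7.5 nL into about 10 µL; 0% = median of vehicle wells and 100% = median of positive control wells; one replicate is shown; the record names a cut of 25% in any replicate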
ALR inh: human ALR oxidase inhibition via reduced H2O2; purified ALR, DTT oxidation, H2O2 HRP-luminol luminescence; inhibition, % (no concentration beside the values); 3.8% of 290,000 active; AID 485317;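 active means mean and each replicate at 75% or more; inconclusive means only one of the two met; inactive means neither met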;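 further: stock transfer was 7.5 nL into about 7.5 µL; 0% = neutral wells and 100% = wells with inactivated enzyme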
Target sequence (P55789 whole entry, looked up): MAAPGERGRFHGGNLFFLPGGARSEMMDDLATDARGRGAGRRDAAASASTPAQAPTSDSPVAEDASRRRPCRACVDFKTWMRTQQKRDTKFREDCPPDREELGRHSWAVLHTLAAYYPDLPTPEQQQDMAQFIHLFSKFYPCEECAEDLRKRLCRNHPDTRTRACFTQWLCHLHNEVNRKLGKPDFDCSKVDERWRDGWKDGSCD
Calb FLC: affects C. albicans growth with fluconazole | 0.57% of 300,000 active | growth inhibition, % (test concentration not listed) | C. albicans CaCi-2 (fluconazole-resistant clinical isolate) + fluconazole, Alamar Blue growth, 48 h | AID 1979;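 active means most replicates above 75%; inconclusive means exactly half above 75%; inactive means most below 75%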;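 further: all wells also contain fluconazole at 8 µg/ml as a sub-toxic cotreatment; 0% = median of DMSO wells and 100% = median of geldanamycin control wells; wells of about 8 µL received 7.5 nL stock; the first replicate is given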
An asterisk follows results filed as active; ? = inconclusive; · = not tested or not shown.

Labels used below – A = HNF4A DNA FP; B = RanGTP-Imp inh; C = B2AR ag; D = Vif A3G; E = LANA-H2B inh; F = ALR inh; G = Calb FLC
O=C(CNC(=O)c1ccccc1)N/N=C/c1ccccc1Cl
  A: -1.7	B: 5.4	C: -2	D: 0%	E: -2.9	F: 1	G: ?

O=C1CCCC(O)=C1C(C#Cc1ccccc1)C1=C(O)CCCC1=O
  A: -1.4	B: ?	C: 10	D: 11%	E: 7.6	F: 24	G: 6

Cc1cc(C)n(-c2c(F)c(F)c(CN3CCCCC3)c(F)c2F)n1
  A: 1.9	B: -3.4	C: 3	D: 0%	E: -2.8	F: -1	G: -1

CC(=O)Nc1cccc(NC(=O)C(=O)NCC(c2ccco2)N2CCc3ccccc32)c1 (stereo not given)
  A: 1.1	B: ?	C: 2	D: 2%	E: 4.5	F: 51	G: 3

O=C(COC(=O)c1ccc[n+]([O-])c1)Nc1c(Br)cc([N+](=O)[O-])cc1Br
  A: ·	B: 0.6	C: ·	D: 9%	E: 1.8	F: -10	G: -2

O=C(NCCc1ccccn1)c1nc(Cn2cc(Br)cn2)no1
  A: 1.0	B: 0.0	C: 6	D: 5%	E: 3.9	F: -4	G: 2

O=C(Nc1ccc2oc(-c3ccccc3)nc2c1)c1ccncc1
  A: 0.5	B: 0.5	C: -3	D: -5%	E: 1.9	F: -8	G: -11

CCOC(=O)C1CCCN(C(=O)c2ccc(S(=O)(=O)NCc3ccco3)cc2)C1 (stereo not given)
  A: 1.7	B: 0.4	C: 11	D: 7%	E: -6.9	F: -1	G: 11

Cc1cc(C)c2[nH]c(=O)c(C(c3nnnn3CC3CCCO3)N3CCC(C)CC3)cc2c1 (stereo not given)
  A: 1.6	B: 4.9	C: 13	D: 16%	E: 4.8	F: -21	G: 6

COc1ccccc1Nc1ncnc2c1c(C)c(C)n2CCCN(C)C
  A: 2.9	B: -0.6	C: 10	D: -8%	E: 2.9	F: 7	G: 31

C#CCOCCOCCOCCNc1nc(N2CCOCC2)nc(N2CCN(C(=O)[C@H](CCCCN)n3cc(CN)nn3)CC2)n1
  A: 16	B: ·	C: -2	D: ·	E: -4.8	F: -4	G: ·

Cc1cccc(C(=O)Oc2ccc3ccc(O)cc3c2)c1
  A: -1.5	B: ?	C: 6	D: 0%	E: -1.7	F: -43	G: 17

Cc1cccn2c(=O)c(C=NCCO)c(Nc3ccc(Cl)cc3)nc12
  A: ·	B: 5.7	C: ·	D: ·	E: 2.9	F: -15	G: 25

COC(=O)[C@H](Cc1ccccc1)NC(=O)Cn1cnc2c(OCc3ccccc3)ncnc21
  A: 1.1	B: ·	C: 25	D: 5%	E: -298	F: 0	G: ·

O=C(Nc1ccc(Cc2ccncc2)cc1)c1ccc(S(=O)(=O)N2CCCC2)cc1
  A: -0.1	B: -0.8	C: -6	D: 11%	E: ·	F: ·	G: 16

CCCS(=O)(=O)N1CCN(S(=O)(=O)c2ccc(F)cc2)CC1
  A: 0.5	B: -7.9	C: 1	D: 23%	E: 0.0	F: -2	G: -1

[O-][n+]1ccccc1/C=C/c1ccccc1
  A: 2.4	B: 2.0	C: -5	D: ·	E: -1.3	F: -2	G: 1

COc1ccc(C2=NN(Cc3c(F)cccc3Cl)C(=O)CC2)cc1
  A: 0.4	B: -0.1	C: -3	D: 2%	E: 3.8	F: ·	G: -2

O=C(CSc1cccc[n+]1[O-])c1cc2ccccc2o1
  A: -0.3	B: 5.4	C: 0	D: 0%	E: 0.9	F: 94*	G: -11

COC(=O)CCS(=O)(=O)c1nc(-c2ccccc2)cc(C(F)(F)F)n1
  A: -1.5	B: 6.3	C: 97*	D: 1%	E: 1.9	F: 98*	G: 6

O=C(NCc1cccs1)C(Cc1ccccc1)NS(=O)(=O)c1cccs1 (stereo not given)
  A: 24	B: -3.9	C: -3	D: 22%	E: 0.1	F: -2	G: -2

C=CCn1cnc2scc(-c3ccc(CC)cc3)c2c1=O
  A: 1.2	B: 0.7	C: -8	D: 1%	E: -5.0	F: 12	G: 2

Cc1ccc2nc(-c3ccc(N4C(=O)CC(N5CCN(CCO)CC5)C4=O)cc3)sc2c1 (stereo not given)
  A: 1.3	B: 0.9	C: 34	D: -7%	E: -5.8	F: 2	G: -4

CCOC(=O)c1cnc(SC)nc1NCCOC
  A: 0.7	B: -1.0	C: -6	D: ?	E: 4.0	F: -5	G: -10

COc1ccc(C(=O)C2CCCN(Cc3cnc(N4CCOCC4)s3)C2)c(OC)c1 (stereo not given)
  A: 1.2	B: 0.7	C: -5	D: 0%	E: -0.9	F: -17	G: 3

CN(Cc1nccn1C)C(=O)C1CCC(=O)N(Cc2cccc(C(F)(F)F)c2)C1 (stereo not given)
  A: 2.9	B: -2.2	C: -2	D: -4%	E: -6.9	F: -2	G: -5

COc1cccc(Oc2cc(Cl)nc(N)n2)c1
  A: 0.8	B: -1.7	C: -4	D: ·	E: 2.7	F: -11	G: -2

Cc1ccc(S(=O)(=O)N2CCN(C(=O)CCCN3C(=O)NC4(CCCC4)C3=O)CC2)cc1C
  A: -1.2	B: ·	C: 6	D: -8%	E: -157	F: -4	G: ·

CC(NS(=O)(=O)c1cn(C)c(=O)n(C)c1=O)c1ccccc1 (stereo not given)
  A: 2.0	B: 1.5	C: -7	D: ·	E: 3.1	F: -17	G: -1

Cc1ccc(S(=O)(=O)N2CCN(C(=O)c3ccco3)CC2)cc1
  A: -1.8	B: 4.6	C: -3	D: 3%	E: 0.6	F: 1	G: 6

CCOC(=O)c1c(O)c2ccccc2n(CC)c1=O
  A: 3.2	B: -1.8	C: -1	D: -12%	E: -2.3	F: ·	G: 15

N#Cc1ccc(-c2ccc(F)cc2)nc1Sc1ccccc1
  A: 0.0	B: -0.6	C: -9	D: -5%	E: 4.9	F: -6	G: -10

O=C(c1ccc(Cl)c(Cl)c1)c1cc(-c2ccccn2)c(N2CCOCC2)s1
  A: 2.0	B: -10	C: -4	D: -30%	E: 0.3	F: ·	G: 18

CCN(CC)C(=O)Cn1cc(S(=O)(=O)CC(=O)Nc2ccccc2C)c2ccccc21
  A: 2.3	B: -2.4	C: -2	D: 22%	E: 2.7	F: ·	G: -9

CCOC(=O)NNC(=O)c1[nH]c2ccc(Br)cc2c1-c1ccccc1
  A: 1.2	B: -1.7	C: 0	D: -18%	E: -4.6	F: -1	G: -4

O=C(COC(=O)COc1cccc2ccccc12)NCC(F)(F)F
  A: -0.2	B: 1.7	C: 1	D: -2%	E: 5.9	F: -2	G: -3

CC1CC(=O)N(CC(=O)NCc2ccc(F)cc2)c2ccccc2S1(=O)=O (stereo not given)
  A: 1.8	B: 1.0	C: -7	D: 8%	E: -2.2	F: -2	G: -20

COc1ccc(Cl)cc1NC(=O)COC(=O)c1c(-c2ccccc2)noc1C
  A: -2.0	B: ·	C: 0	D: -8%	E: 3.4	F: -2	G: ·

CCC(C)(C)C1CCc2[nH]nc(C(=O)NCCN3CCOCC3)c2C1 (stereo not given)
  A: -1.4	B: ·	C: -6	D: ·	E: -1.2	F: -9	G: ·

COc1ccc(C(=O)OCC(=O)c2c(N)n(C)c(=O)n(C)c2=O)cc1OC
  A: 4.4	B: 4.0	C: -3	D: >100µM*	E: 3.5	F: -17	G: 21

Cc1c2c(nc3nc4ccccc4n13)CC(C)(C)CC2=O
  A: -1.6	B: 2.7	C: -9	D: 4%	E: -1.9	F: -10	G: -17

CSc1nc(-c2ccccc2)nc(NC(=O)c2ccccc2)c1C(C)=O
  A: 5.8	B: 1.8	C: -8	D: -2%	E: 5.9	F: 1	G: -4

CCCCC(=O)NC(=S)Nc1ccc(Cl)c(C(=O)O)c1
  A: -3.6	B: 10	C: 6	D: -1%	E: 0.3	F: -7	G: -6

COc1ccc(CCN(C)C2CCCN(S(=O)(=O)c3ccccc3)C2)cc1OC (stereo not given)
  A: -0.4	B: 4.1	C: -4	D: 0%	E: -2.9	F: -1	G: -10

Cc1nn(-c2ccccc2)c2c1C(c1ccc(Cl)cc1)N(c1ccccc1)C(=O)N2 (stereo not given)
  A: 6.6	B: -0.9	C: -36	D: 4%	E: 2.6	F: 3	G: 18

COCCNC(=O)CN1CCC(NC(=O)Nc2ccc(C(F)(F)F)cc2)CC1
  A: -2.6	B: -1.8	C: 4	D: 0%	E: 4.0	F: ·	G: 8

Cc1ccc2c(Cl)cc(Cl)c(OCC(=O)NCCc3ccccn3)c2n1
  A: 0.5	B: 2.2	C: 10	D: ·	E: -2.4	F: -34	G: ?

CC(=O)Nc1ccc(NC(=O)C(C)OC(=O)c2cccc(S(=O)(=O)N3CCCCC3)c2)cc1 (stereo not given)
  A: 1.8	B: 3.0	C: 0	D: 3%	E: -0.5	F: -17	G: 4

COc1ccc(CC(=O)NCC(=O)N/N=C/c2cc(Br)ccc2OC)cc1
  A: 4.0	B: 2.7	C: 5	D: ·	E: -2.5	F: ·	G: 0

O=C(CNCc1ccc(F)cc1)Nc1ccc(C(=O)N2CCCCC2)cc1
  A: -1.4	B: ?	C: -1	D: ·	E: 7.9	F: 0	G: -4

Molecules above that have two or more sulfur atoms:
Labels used below – A = HNF4A DNA FP; B = RanGTP-Imp inh; C = B2AR ag; D = Vif A3G; E = LANA-H2B inh; F = ALR inh; G = Calb FLC
CCCS(=O)(=O)N1CCN(S(=O)(=O)c2ccc(F)cc2)CC1
  A: 0.5	B: -7.9	C: 1	D: 23%	E: 0.0	F: -2	G: -1

O=C(NCc1cccs1)C(Cc1ccccc1)NS(=O)(=O)c1cccs1 (stereo not given)
  A: 24	B: -3.9	C: -3	D: 22%	E: 0.1	F: -2	G: -2

Other compounds:
Labels used below – A = HNF4A DNA FP; B = RanGTP-Imp inh; C = B2AR ag; D = Vif A3G; E = LANA-H2B inh; F = ALR inh; G = Calb FLC
CCc1ccc(N/C(SCc2ccccc2C)=C(/C#N)C(=O)NCc2ccco2)cc1
  A: -3.8	B: ·	C: 5	D: -1%	E: -7.6	F: -38	G: -11

Cn1nc(C(F)(F)F)c(-c2cccc(C(F)(F)F)c2)c1NC(=O)c1nccnc1C(=O)O
  A: 0.4	B: -1.6	C: 13	D: ·	E: -3.3	F: ·	G: -8

CCC(=O)NCC(=O)OCC(=O)c1ccccc1
  A: -1.0	B: 5.2	C: 8	D: -3%	E: 1.4	F: -9	G: -3

CN(C)CCNC(=O)/C=N/O
  A: -1.8	B: -6.8	C: 3	D: ·	E: -3.4	F: -22	G: 20

Cc1nn(Cc2ccccc2)c(Cl)c1/C=C/C(=O)OC(C(=O)NC(N)=O)C(C)C (stereo not given)
  A: -2.6	B: 7.0	C: -3	D: 3%	E: -3.3	F: ·	G: -8

COCCOC(=O)C1=C(C)OC(N)=C(C#N)C1c1ccc2c(c1)OCO2 (stereo not given)
  A: -2.2	B: 7.4	C: 6	D: 6%	E: 3.7	F: 21	G: -8

O=C(NCc1ccccn1)c1ccc(Cl)c(S(=O)(=O)NCc2ccccc2)c1
  A: -3.9	B: ·	C: -4	D: ·	E: -0.1	F: -18	G: ·

CCN(CC(=O)Nc1ccc(OC)cc1)C(=O)c1cc(S(=O)(=O)N(C)C)ccc1N1CCCC1
  A: 0.6	B: 2.9	C: -8	D: 2%	E: 2.3	F: 1	G: -1

CC(=O)C1=C(O)C(=O)N(c2ccc(Br)cc2)C1c1cccc(F)c1 (stereo not given)
  A: 2.0	B: 2.0	C: 8	D: -13%	E: 3.7	F: ·	G: 32

COc1ccccc1CNC(=O)CCC(=O)N1CCOc2ccc(Cl)cc21
  A: 3.2	B: 0.3	C: -8	D: ·	E: -2.0	F: ?	G: 15

Cc1ccc(NNC(=O)C(O)(c2cccc(C(F)(F)F)c2)c2cccc(C(F)(F)F)c2)cc1
  A: -2.7	B: 5.0	C: 17	D: 3%	E: 4.5	F: 2	G: 69

CC(=O)Nc1ccc2nc(NC(=O)c3cccnc3)sc2c1
  A: -2.4	B: -5.6	C: 22	D: 13%	E: -1.3	F: 6	G: -8

COc1ccc(OC)c2c1CCC2=O
  A: 5.2	B: -0.8	C: 0	D: -1%	E: 1.3	F: 0	G: 7

Screens deposited in PubChem BioAssay by several laboratories.
